TRPML1 ag – qHTS for Agonists of the Human Mucolipin Transient Receptor Potential 1 (TRPML1). Mucolipin-1 (Homo sapiens), Q9GZU1. TRPML1-expressing cells, Ca2+ dye fluorescence, FDSS; host cell line not named in the record; reference of the full effect not given here. activation, % (concentration not given with the values). actives 0.12% (n = 410,000); in the data active = activation above about 50%; inconclusive = about 30% to 50%; inactive = below about 30%; further: 0% is about no effect; the text of the record puts the active cut at 80%
Target sequence (Q9GZU1 whole entry, looked up): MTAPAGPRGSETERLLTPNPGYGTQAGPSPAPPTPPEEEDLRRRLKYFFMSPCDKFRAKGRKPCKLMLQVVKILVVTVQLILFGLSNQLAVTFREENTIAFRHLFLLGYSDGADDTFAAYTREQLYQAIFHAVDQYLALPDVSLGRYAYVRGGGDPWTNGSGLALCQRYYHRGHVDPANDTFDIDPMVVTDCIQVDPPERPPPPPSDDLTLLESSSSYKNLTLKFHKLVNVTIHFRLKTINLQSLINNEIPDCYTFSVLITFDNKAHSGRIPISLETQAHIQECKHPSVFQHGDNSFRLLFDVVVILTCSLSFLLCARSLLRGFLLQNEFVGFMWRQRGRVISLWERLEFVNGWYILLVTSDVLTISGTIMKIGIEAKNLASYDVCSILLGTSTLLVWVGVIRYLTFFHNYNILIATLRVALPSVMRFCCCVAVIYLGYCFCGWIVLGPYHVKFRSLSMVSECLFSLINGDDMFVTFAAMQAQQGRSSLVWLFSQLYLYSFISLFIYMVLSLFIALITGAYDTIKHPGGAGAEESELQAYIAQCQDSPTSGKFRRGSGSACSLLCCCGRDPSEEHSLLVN
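In this qHTS format, compounds were pin-transferred onto Ca8-dye-loaded TRPML1-DL cells induced with Tet overnight, and intracellular Ca2+ fluorescence was recorded kinetically for 110 s after a 10 s baseline. A subsequent 4uM final 54-4 (EC80) addition followed by a second 110 s read served as the antagonist phase.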
D2 agonist – Beta-Arrestin HTS for Positive Allosteric Modulators of the Human D2 Dopamine Receptor: Agonists. AID 624465, 2012. actives 0.084% (n = 360,000). D(2) dopamine receptor (Homo sapiens), P14416. activation, % (test concentration not listed). DiscoveRx PathHunter D2 beta-arrestin, luminescence, 90 min; 100% = 57 uM dopamine signal; in the data active = activation above about 40%; inconclusive = about 15% to 40%; inactive = below about 15%; further: compound concentration not given in the record; the text of the record calls up to 30% inactive
Target sequence (P14416 whole entry, looked up): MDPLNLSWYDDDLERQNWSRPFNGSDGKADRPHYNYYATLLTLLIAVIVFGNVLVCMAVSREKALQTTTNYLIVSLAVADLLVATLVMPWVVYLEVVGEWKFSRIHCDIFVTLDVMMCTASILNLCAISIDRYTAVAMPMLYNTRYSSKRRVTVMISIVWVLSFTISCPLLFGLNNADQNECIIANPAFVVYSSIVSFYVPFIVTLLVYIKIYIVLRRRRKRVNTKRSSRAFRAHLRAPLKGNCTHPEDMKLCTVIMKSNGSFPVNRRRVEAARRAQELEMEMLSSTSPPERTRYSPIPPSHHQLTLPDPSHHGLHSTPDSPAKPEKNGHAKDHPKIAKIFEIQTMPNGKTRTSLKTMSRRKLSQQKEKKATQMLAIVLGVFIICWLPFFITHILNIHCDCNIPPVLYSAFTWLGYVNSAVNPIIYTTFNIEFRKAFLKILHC
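DiscoveRx PathHunter D2 beta-arrestin cells (2,100/well) attached overnight, then compound-stimulated 90 min at 37 C in HBSS/10 mM HEPES/0.1% Tween-20 buffer; beta-galactosidase complementation read by luminescence after 1 h at ambient temperature. Dopamine 57 uM final (EC100) as control.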
PINK1 expr mod – A Quantitative High throughput Screen to Identify Chemical Modulators of PINK1 Expression; actives 0.2% (n = 410,000); Potency, µM (titrated, usually from 76.6 µM), inactives show top-dose activation (PINK1 increase), actives largely listed as activators; PINK1 immunofluorescence, high-content cytometry, 24 h; active = well fitted activation curve with a large enough effect; inconclusive = small, poorly fitted or top-dose-only effect; inactive = flat fitted curve, though single readings scatter; cell line not stated here;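 further: potency means the concentration at half of the fitted maximal effect; % of control where 0% means no effect; nearly all actives have a fitted effect of over 65% in size; a mitochondrial uncoupler was the plate control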
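Readout is PINK1 immunofluorescence, quantified alongside mitochondrial, cell and nuclear markers by laser-scanning microplate cytometry. Cells from a stable line were exposed to compound titrations (5 concentrations) for 24 hours, with CCCP controls.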
TRPML1 blocker – qHTS for Inhibitors of the Human Mucolipin Transient Receptor Potential 1 (TRPML1). TRPML1-inducible cells, Ca2+ dye fluorescence, FDSS; hits give low values; inhibition of EC80 agonist-evoked calcium signal. activity change, negative = inhibition, % (concentration not given with the values). actives 0.02% (n = 390,000). AID 624415, 2012; in the data active means activity change below about -50%; inconclusive means about -30% to -50%; inactive means above about -30%;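 further: stimulus is agonist 54-4 at its EC80 concentration; on the % scale 0 is the no-effect control and ±100 the full control effect; compound concentration not given in the record; the text of the record puts the active cut at -80%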
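Tet-induced TRPML1-DL cells loaded with Ca8 no-wash calcium dye were read kinetically on FDSS. Compound addition was followed by EC80 agonist 54-4 (4 uM final); inhibition was read over 110 s.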
Six1-Eya2 blk – qHTS Assay for Inhibitors of the Six1/Eya2 Interaction | AlphaScreen GST-Six1/His-Eya2 binding, biochemical; hits give low values; control for the full effect not named in the record | actives 0.56% (n = 360,000) | activity change, % (concentration not given with the values) | AID 651725, 2012; in the data active = activity change below about -65%; inconclusive = about -30% to -65%; inactive = above about -30%; further: on the % scale 0 is the no-effect control and ±100 the full control effect
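Compounds are tested against tagged Six1 and Eya2 proteins bridged by glutathione donor and nickel acceptor beads; after a one-hour incubation at 37 °C without light, AlphaScreen emission is recorded.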
CtBP-E1A inh – qHTS Assay for Inhibitors of the CtBP/E1A Interaction; CtBP / adenovirus E1A interaction (AlphaScreen); AlphaScreen GST-E1A/His-CtBP binding, 1536-well; hits give low values; control for the full effect not named in the record; activity change, % (test concentration not listed); actives 0.49% (n = 340,000); AID 651724, 2012; in the data active means activity change below about -65%; inconclusive means about -30% to -65%; inactive means above about -30%; further: on the % scale 0 is the no-effect control and ±100 the full control effect; compound concentration not given in the record
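Steps: dispense buffer (Tris pH 8.0, NaCl 300 mM, TCEP 1 mM, BSA, Tween 20); add 5X protein mix (GST-E1A, His-CtBP, 125 nM each); pin 23 nL compound; 2 h at 37 °C, dark; add 5X beads (50 ug/mL); 1 h; read.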
Numbers without * were called inactive; ? = inconclusive; nt = not tested or not shown; [ ] = dose if it differs, or a comment.

SMILES	TRPML1 ag	D2 agonist	PINK1 expr mod	TRPML1 blocker	Six1-Eya2 blk	CtBP-E1A inh
CC(C)(C)NC(=O)C(c1ccncc1)N(C(=O)Cn1nnc(-c2ccc(F)cc2)n1)c1ccccc1 (centres undefined)	-0.6	0.6	7.3%	-7.8	0.8	-0.1
O=C(O)CC(SCc1ccc(C(=O)O)o1)C(=O)O (centres undefined)	0.3	-3.8	1.6%	-1.6	1.6	11.9
Cc1[nH]nc(N=CC2=C(O)CC(c3ccco3)CC2=O)c1-c1ccc(Cl)cc1 (centres undefined)	-0.2	-1.1	6.5%[38.3 µM]	9.5	2.2	3.9
CC(C)(C)C1CCc2onc(C(=O)O)c2C1 (centres undefined)	-0.3	-1.5	0.1%	24.1	2.0	5.6
CCOc1ccc(CCN2C(=O)C(=O)N([C@@H](CC(C)C)CN3CCC[C@H]3CN3C(=O)C(=O)NC[C@@H]3Cc3ccccc3)C[C@@H]2CC(C)C)cc1	-0.7	nt	0.8%	nt	-1.0	2.0
CCn1nnc2cc(C(=O)Nc3cccc(S(=O)(=O)N(C)C)c3)ccc21	0.5	6.1	-0.6%	2.4	-0.5	-1.0
CCCNS(=O)(=O)c1cc2c(cc1Br)CCN2C(=O)CC	-0.8	0.7	2.7%	-7.9	-5.4	-5.4
CCn1nnc2cc(C(=O)Nc3ccc(C)c(Cl)c3)ccc21	1.6	nt	4.4%	2.8	nt	nt
Cc1cc(C)c2nc(NC(=O)c3ccc(OCC4CCCO4)cc3)sc2c1 (centres undefined)	1.4	-0.3	-0.9%	15.7	-3.9	nt
COc1ccc(CNS(=O)(=O)c2ccc3c(c2)CCN3C(=O)C2CC2)cc1	-0.1	-4.1	8.1%[38.3 µM]	0.3	18.1	0.0
COc1ccc(CNC(=O)C/C(C)=N/NC(=O)COc2ccc(Br)cc2)cc1	-0.3	-2.2	0.1%	-0.6	5.3	9.0
CCOC(=O)C1CCCN(c2nc3ccccc3nc2C(C#N)C(=O)OCC)C1 (centres undefined)	3.9	-4.8	10.5%	53.5	7.6	7.7
Cn1c(N)c(C#N)c2c(c1=S)CSC(C)(C)C2	-0.8	-1.8	3.5%	-0.8	-3.4	-1.2
O=C(Nc1ccc2[nH]ccc2c1)c1ccccc1	0.4	2.9	0.0%	22.1	0.6	-1.6
CCOc1ccccc1NC(=O)c1sc2nc(C)cc(C)c2c1N	0.2	nt	0.3%	16.9	nt	nt
Cc1cc(C)c2c3c(sc2n1)C(=O)N(Cc1ccccc1)CC(=O)N3	0.0	2.5	nt	-6.4	3.3	2.0
CC1CCN(C(=O)CN2C(=O)C(C)(C)Oc3ccc(C(=O)NC(C)C)cc32)CC1	-0.6	7.3	0.6%	12.5	3.9	6.0
CCC1CCCCN1C(=O)Cn1c(=O)n(-c2ccc(Cl)c(Cl)c2)c(=O)c2c(C)c(C(=O)N(C)C)sc21 (centres undefined)	1.3	nt	0.9%	1.1	nt	nt
CCOC(=O)c1c(-c2ccccc2)csc1NC(=O)c1cc(-c2cccc(OC)c2)on1	2.0	nt	-0.1%	-6.7	nt	nt
O=C(O)C1CC(O)CN1S(=O)(=O)c1ccc2ccccc2c1 (centres undefined)	1.8	-6.6	0.8%	-1.6	4.9	9.9
COc1ccc(N2CCN(CCCNC(=O)CN3CCN(Cc4ccccc4C)C3=O)CC2)cc1	-0.2	-2.7	0.9%	-11.6	-22.4	-25.2
CCOC(=O)c1c(-c2ccc(OC)cc2)csc1NC(=O)CSc1ncnc2sccc12	0.7	0.8	0.4%	-3.6	0.1	nt
Cc1cccc(CSc2nc(=O)c3c(n2C)NC(=O)CC3c2cccc(O)c2)c1 (centres undefined)	-0.5	nt	0.6%	-14.9	nt	nt
COc1ccc(OC)c(-n2c(-c3cccc(C)c3)n[nH]c2=S)c1	1.8	-4.1	-0.8%	3.1	-6.6	-9.6
Cc1csc(/C(=N/OC(=O)c2ccco2)C(N)=O)n1	-0.7	-4.3	2.5%	-10.1	-15.8	-2.1
Next compounds
SMILES	TRPML1 ag	D2 agonist	PINK1 expr mod	TRPML1 blocker	Six1-Eya2 blk	CtBP-E1A inh
O=S(=O)(Nc1cc(Br)cc2cccnc12)c1cccc2ccccc12	-0.1	nt	-1.3%	11.7	nt	nt
CC(c1ccccc1)C1C(C#N)=C(N)OC2=C1C(=O)CCC2 (centres undefined)	0.7	-1.8	0.7%	27.7	-1.4	-0.4
COc1ccc(-c2ccc(C(=O)NC3CCCCC3)c3occc23)c(C)c1	0.2	-2.3	19.1%	nt	0.0	1.4
Cc1nc(-c2ccccc2)nc2[nH]c(C(C)C)cc(=O)c12	0.2	-1.4	-0.7%[38.3 µM]	2.6	-2.7	-7.4
O=C(O)CCCn1cc(NC(=O)c2cc(F)c(F)cc2Cl)cn1	0.6	?	0.0%	23.7	-11.1	nt
CCOC(=O)c1c(NC(=O)C2c3ccccc3Oc3ccccc32)sc(C)c1CC	0.5	nt	1.0%	-4.7	nt	nt
O=C(CSc1nc2ccc([N+](=O)[O-])cc2[nH]1)NCCc1ccccc1	0.1	-6.1	13.9%[38.3 µM]	-6.5	-7.5	-1.6
CCOC(=O)N1CCC(NC(=O)c2ccc(OC)c(CN3CC(=O)N4CCCC4C3=O)c2)CC1 (centres undefined)	0.3	0.4	2.8%	6.6	2.1	4.9
COc1cccc(CNC(=O)CCCn2nc(C)c3c(C)n(-c4ccccc4)nc3c2=O)c1	-0.5	-1.5	3.7%	-20.2	-11.6	-16.4
O=C(CN1CCCCCC1)Nc1ccc([N+](=O)[O-])cc1Br	1.6	4.6	9.2%	26.9	-9.6	-28.9
N#C/C(=C/c1ccccc1[N+](=O)[O-])c1nc(C2CC2)cs1	3.4	5.8	2.9%	37.7	-29.4	?
CCc1noc(-c2ccc(N(C)Cc3ccc(OC)cc3)c([N+](=O)[O-])c2)n1	-0.3	nt	5.6%	73.8	nt	nt
Cc1ccc(/C=N/NC(=O)c2nnn(-c3nonc3N)c2CSc2ccccc2)o1	0.5	-0.9	4.4%	-0.1	-13.9	-9.7
CCC(C)CCN1C(Nc2ccccc2)=NC[C@@H]1CC(C)C (some centres undefined)	-0.1	-2.8	4.0%	18.9	0.5	6.1
CCc1cccc(NC(=O)c2ccc3c(c2)c(C)c(C)n3Cc2ccc(F)cc2)c1	0.4	nt	6.4%	65.0	nt	nt
CCN(C(=O)COC(=O)c1cccn1C)C1CCS(=O)(=O)C1 (centres undefined)	-0.6	9.4	3.2%	-14.0	8.7	4.5
Cc1ccc(S(=O)(=O)N2CCCOC2CNC(=O)C(=O)NCCc2ccco2)cc1 (centres undefined)	-0.8	-0.1	0.8%	-6.0	32.2	-6.1
O=C(CSc1nc(N2CCOCC2)nc(N2CCOCC2)n1)Nc1ccccc1F	-0.1	-1.7	5.6%	-0.5	2.8	8.4
Cc1cccc(C)c1NC(=O)CN1C(=O)c2ccccc2Sc2ncccc21	0.2	nt	-0.1%	56.2	nt	nt
COc1cc(-c2nc3ccccn3c2/N=C/c2ccccc2)ccc1O	0.2	5.2	nt	-16.1	-14.7	-18.4
CCOCCCNC(=O)CN1CCN(c2ccc(F)cc2)CC1	0.4	0.2	nt	7.6	3.6	8.5
CCCCc1cc(=O)oc2c(C)c(OCC(=O)NCCN3CCOCC3)ccc12	0.5	-2.3	-0.2%	-8.6	-4.1	-24.5
CC1CCN(C(=O)Cn2cc(C(=O)C3CC3)c3ccccc32)CC1	0.7	-4.3	1.2%	29.7	6.2	4.6
Cc1ccc(NC(=O)CC2Nc3ccccc3NC2=O)cc1C (centres undefined)	2.3	nt	-2.0%	-15.1	nt	nt
Cn1cccc1C(=O)NS(=O)(=O)c1ccccc1Cl	-0.5	-1.6	7.3%[38.3 µM]	-2.5	-0.1	-0.2

Reprinted from the results shown for reference:
SMILES	TRPML1 ag	D2 agonist	PINK1 expr mod	TRPML1 blocker	Six1-Eya2 blk	CtBP-E1A inh
CC1CCN(C(=O)Cn2cc(C(=O)C3CC3)c3ccccc32)CC1	0.7	-4.3	1.2%	29.7	6.2	4.6
Cc1ccc(NC(=O)CC2Nc3ccccc3NC2=O)cc1C (centres undefined)	2.3	nt	-2.0%	-15.1	nt	nt
Cn1cccc1C(=O)NS(=O)(=O)c1ccccc1Cl	-0.5	-1.6	7.3%[38.3 µM]	-2.5	-0.1	-0.2

The list goes on.
SMILES	TRPML1 ag	D2 agonist	PINK1 expr mod	TRPML1 blocker	Six1-Eya2 blk	CtBP-E1A inh
O=[N+]([O-])c1ccc(S(=O)(=O)NCC2COc3ccccc3O2)cc1 (centres undefined)	0.4	8.9	-0.4%	-18.4	-5.3	-6.8
Cc1cc(C)c(C#N)c(SCC(=O)N(C)C2CCCCC2)n1	0.8	-4.1	-0.4%	21.3	10.5	1.2
COc1ccc(C(=O)NCC(C)(c2ccccc2)c2ccccc2)cc1S(=O)(=O)N1CCOCC1	1.5	-7.4	0.8%	-16.1	-2.3	3.2
COC(=O)[C@H](Cc1ccccc1)NC(=O)Nc1ccc(C)cc1	1.1	0.8	-5.8%[38.3 µM]	-0.8	-3.2	-9.0
Cc1ccc2oc(=O)c(/C=C(\O)c3cccs3)nc2c1	0.1	-0.9	-0.7%	7.2	3.8	0.7
CCN1C(=O)C(Cc2nc3ccccc3c(=O)n2-c2ccc(OC)cc2)c2ccccc21 (centres undefined)	3.1	nt	4.1%	14.4	nt	nt
CCC(NS(=O)(=O)c1ccc(C)cc1)C(=O)O (centres undefined)	2.2	-3.6	1.3%[38.3 µM]	16.4	-0.1	0.7
COc1ccc(CCNC(=O)Cc2cc3c(cc2[N+](=O)[O-])OCO3)cc1OC	-0.5	0.1	-1.8%	26.7	0.1	-4.0
O=S(=O)(c1ccc(Br)cc1)c1nnn2c1nc(NC1CCCCCC1)c1sccc12	0.3	nt	0.4%	1.5	nt	nt
CC(C)(C)NS(=O)(=O)c1ccc(CCC(=O)NCc2ccc3c(c2)OCO3)cc1	0.5	0.9	1.4%[38.3 µM]	2.8	-5.5	-0.6
COc1nc(NCCC2=CCCCC2)nc(OC)n1	1.4	-2.6	-2.4%	7.7	-10.9	-14.1
NC(=O)c1cc(-c2ccncc2)nc2ccc(Cl)cc12	1.1	-1.9	-0.7%	-23.5	0.0	-4.1
Cc1ccc(CSCC(=O)Nc2c(C)n(C)n(-c3ccccc3)c2=O)cc1	-0.3	-1.2	-1.7%	-14.6	-0.7	3.5
CC(=O)C1C(c2ccncc2)NC(=O)NC1(O)C(F)(F)F (centres undefined)	0.1	-0.7	6.9%[38.3 µM]	-15.1	1.0	2.6
CCCn1c(=O)[nH]c(=O)c2c1nc(-c1ccc(OC)c(Br)c1)n2CCOC	-0.3	-2.1	0.1%	0.3	2.0	-2.0
